ugtP null kill: growth inhibition of S. aureus ugtP deletion strain; growth inhibition, % (test concentration not listed); S. aureus RN4220 ugtP deletion, OD600 growth, 16 h; some inactives read as strong as hits; 330,000 compounds, 0.54% hits;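 active means z-score under -3 and OD600 up to 0.15 on both plates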;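 further: plate controls were untreated wells for no effect and antibiotic for full effect; wells of about 80 µL received 100 nL stock; the first replicate is given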
BJeLR lethal: kills HRASV12-expressing BJeLR cells. 300,000 compounds, 0.17% hits. inhibition, % (no concentration beside the values). BJeLR (HRASV12) viability, CellTiter-Glo ATP luminescence, 48 h; reference of the scale not given here;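 active means replicate mean above 50%; inconclusive means above 50% but judged a plate artefact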;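 further: 50 nL library stock added to about 25 µL; numbers are from one replicate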
Sa RN4220 lethal: kills Staphylococcus aureus RN4220. inhibition, % (no concentration beside the values). 330,000 compounds, 0.33% hits. S. aureus RN4220 growth, OD600, 16 h. AID 1259311;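 active means z-score of -3 or lower and OD600 up to 0.18 on both plates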;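 further: plate controls were untreated cells for no effect and reference antibiotic for full effect; stock transfer was 100 nL into about 80 µL; one replicate is shown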
PrP 5UTR inh: inhibition of PrP 5' UTR reporter expression; cell-based PrP 5' UTR mRNA reporter, plate reader; inhibition, % (concentration not given with the values); 340,000 compounds, 0.35% hits; AID 488862;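 active means every replicate at 50% or more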;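 further: 0 = median of the neutral control wells; tested in H4 reporter cells; numbers are from one replicate; inactives centre near -14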
Mtb hypoxia inh: reduces hypoxia-regulated biosensor signal in M. tuberculosis. 300,000 compounds, 0.1% hits. fluorescence inhibition, % (concentration not given with the values). M. tuberculosis hypoxia-regulated fluorescent reporter, fluorescence. AID 1159583;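 active means 35 to 45% if threefold the growth effect, above 45% if 1.5-fold the growth effect; inactive means the rest, general growth blockers included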;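 further: wells of about 50 µL received 100 nL stock; 0% = vehicle wells and 100% = reference inhibitor wells; whole bacteria with a GFP reporter of the hypoxia response; strong numbers were not always called active; many hits fall short of the cut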
Autofluor counter: flagged as autofluorescent in microsphere protease counterscreen. compound autofluorescence counterscreen, microsphere flow cytometry; active compounds read high. fluorescence intensity (concentration not given with the values). 360,000 compounds, 3.1% hits;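 active means at least 3 SD above the mean of all compounds, about 16000 in these data; inconclusive means too few beads counted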;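 further: 100 nL of 1 mM stock went into each well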
Mtb hypoxia inh growth: further read-out of Mtb hypoxia inh, marked with its call; growth inhibition, %; measured here: M. tuberculosis growth (absorbance);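 0% = vehicle and 100% = reference antibiotic; read after six days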
* hit, by the source's call; u = inconclusive; x = not tested or not shown.

1	CCCCCn1c(=O)c(C(=O)NC(C)c2ccccc2)c(O)c2ccccc21 (stereo unspecified)
2	O=C(Nc1cccs1)Nc1ccc(Br)cc1F
3	COc1cc(OC)c2c(c1O)OC(c1ccccc1)CC2=O (stereo unspecified)
4	Nc1[nH][nH]c(=O)c1N=Nc1cccc(Cl)c1
5	O=C(CSc1nc2ccccc2s1)Nc1ccc2c(c1)OCO2
6	CN(Cc1ccc(-n2cccn2)cc1)C(=O)c1cnn2c1NC(c1ccco1)CC2C(F)(F)F (stereo unspecified)
7	CC(=NNC(=O)c1cc([N+](=O)[O-])cc([N+](=O)[O-])c1)c1ccco1
8	Cc1ccc(S(=O)(=O)N2CCN(C(=O)c3ccc(S(=O)(=O)N4CCCC4)cc3)CC2)cc1

screen / no.,1,2,3,4,5,6,7,8
ugtP null kill,24,0,-4,-1,-1,-5,-3,5
BJeLR lethal,1,5,7,10,7,-4,x,0
Sa RN4220 lethal,1.4,1.5,2.2,11,-2.5,-11,2.0,-0.2
PrP 5UTR inh,-28,-46,-27,-8,10,0,x,-2
Mtb hypoxia inh,7,7,x,12,9,-6,20,2
Mtb hypoxia inh growth,-2,3,x,8,2,6,38,-1
Autofluor counter,x,8894,4216,4713,2020,x,x,x

9	CCCc1nc2oc3ccccc3c(=O)c2c(=O)n1CCCOC
10	CCOC(=O)C1CCN(Cc2cccc(Oc3ccccc3)c2)CC1
11	CCCC1(C(=O)OCC)NC(c2ccc(N(C)C)cc2)C2C(=O)N(c3ccc(F)cc3)C(=O)C21 (stereo unspecified)
12	CCOC(=O)C1CCCN(C(=O)c2cc3ncc(Br)cn3n2)C1 (stereo unspecified)
13	CC(c1ccc(F)cc1)n1cc(C(=O)NCCN(C)C)nn1 (stereo unspecified)
14	CCN1CCN(c2oc(-c3ccc([N+](=O)[O-])cc3)nc2C#N)CC1
15	CC(C)OC(=O)C(NC(=O)c1ccccc1)=C1CCCCC1
16	CC1(C)CC(=O)C2=C(C1)Nc1ccccc1NC2c1ccccn1 (stereo unspecified)

screen / no.,9,10,11,12,13,14,15,16
ugtP null kill,-17,10,1,2,7,7,-2,-5
BJeLR lethal,-5,8,1,-9,-3,6,-25,2
Sa RN4220 lethal,4.7,2.4,-3.9,0.2,-0.6,1.6,1.6,1.9
PrP 5UTR inh,-4,-59,-16,-19,-2,x,-10,-14
Mtb hypoxia inh,-11,12,-4,x,-3,9,16,7
Mtb hypoxia inh growth,-2,6,-5,x,-5,15,5,6
Autofluor counter,x,3595,8250,2696,2502,5969,3597,2517

17	Cn1c(O)c(C(=N)COc2cccc(Cl)c2)c(=O)n(C)c1=O
18	CCN(CC)C(=O)Oc1ccc(NC(=O)N2CCOCC2)cc1
19	CN(C)NC(=O)c1csnc1-c1c(Cl)cccc1Cl
20	CC(=O)Nc1ccc(S(=O)(=O)Nc2nnc(CC(C)(C)C)s2)cc1
21	O=S(=O)(NCC1CCCO1)c1ccc(S(=O)(=O)N(Cc2ccc(F)cc2)C2CCCCC2)cc1 (stereo unspecified)
22	O=C(Cc1cccs1)Nc1cccc(-c2ccc3nncn3n2)c1
23	COc1ccc(-n2c(C(C)n3nc(C)c([N+](=O)[O-])c3C)n[nH]c2=S)cc1 (stereo unspecified)
24	Cc1nc(N2CCCCC2)sc1C(=O)c1ccc(SCCO)c([N+](=O)[O-])c1

screen / no.,17,18,19,20,21,22,23,24
ugtP null kill,-12,5,3,3,5,8,-6,4
BJeLR lethal,-1,-7,-9,1,7,11,2,19
Sa RN4220 lethal,3.8,3.8,4.3,6.5,0.2,1.9,1.8,4.4
PrP 5UTR inh,-16,-23,-15,-18,6,-12,2,-8
Mtb hypoxia inh,16,7,10,11,-5,-6,0,-1
Mtb hypoxia inh growth,6,9,4,2,-6,2,5,2
Autofluor counter,10135,3364,5332,4411,21632*,5624,9879,3288

25	CCc1cc(C(=O)N/N=C/c2ccc(O)cc2O)c2ccccc2n1
26	[O-][N+]1=C2CCC/C(=N\O)C2=NC12CCCCC2
27	CCOC(=O)c1c(C)[nH]c(C(=O)N/N=C/c2ccc(Br)cc2)c1C
28	O=C(NCCc1nnc2ccc(N3CCCCCC3)nn12)c1ccccc1F
29	C=CCn1c(SCC(=O)NC2CC2)nc2sc(CC)cc2c1=O
30	CC(C)CCOc1cccc(OCC(=O)Nc2ccncc2)c1
31	CCOC(=O)c1cnn(-c2ccccc2)c1-n1cccc1C(=O)C(=O)Nc1ccccc1
32	CN(Cc1ccno1)C(=O)CC1C(=O)NCCN1CC(c1ccccc1)c1ccccc1 (stereo unspecified)

screen / no.,25,26,27,28,29,30,31,32
ugtP null kill,x,x,x,-1,8,0,1,5
BJeLR lethal,16,4,46,4,-5,3,-2,0
Sa RN4220 lethal,x,x,x,2.2,1.1,3.3,1.6,1.1
PrP 5UTR inh,20,-41,55*,-7,-18,-11,-33,0
Mtb hypoxia inh,x,x,x,6,11,6,x,-5
Mtb hypoxia inh growth,x,x,x,-1,9,5,x,-5
Autofluor counter,5449,10790,2140,5246,4190,5563,2616,4692

33	COc1ccc(CC(=O)NCCc2ccc(OC)c(OC)c2)cc1
34	NC(=O)c1cccc2c3c([nH]c12)CCCC3
35	O=C(N/C(=C\c1ccc(Br)cc1)C(=O)N1CCCC1)c1ccccc1F
36	Cc1cccc(NC(=O)CN(c2ccc(C(C)C)cc2)S(=O)(=O)c2c(C)nn(C)c2C)n1
37	COc1ccc(Cl)cc1NC(=O)CSc1nnc(C)c(=O)n1N
38	Cc1ccc(NC2CCCN(C(=O)c3cccc(-c4ncc[nH]4)c3)C2)cc1C (stereo unspecified)
39	CCCN(CC(=O)NC(=O)NC1CCCCC1)CC(=O)Nc1cc(Cl)ccc1Cl
40	Cc1ccc(C(=O)NCC(=O)NC2CCC(C)CC2)s1 (stereo unspecified)

screen / no.,33,34,35,36,37,38,39,40
ugtP null kill,7,x,4,-9,2,1,-12,3
BJeLR lethal,-17,0,2,-4,-15,6,x,x
Sa RN4220 lethal,2.3,x,-16,3.3,4.7,-0.2,-5.4,-0.7
PrP 5UTR inh,-30,-32,-8,9,-10,-5,-12,-21
Mtb hypoxia inh,5,x,16,-5,13,-1,7,3
Mtb hypoxia inh growth,10,x,6,-1,3,12,7,7
Autofluor counter,3776,3130,3267,5717,5674,5644,8295,8598

41	CN(C)c1ccc(/C=N\Nc2ccccn2)cc1
42	O=C(c1cc2cc(F)ccc2[nH]1)N1CCC(Cc2ccccc2)CC1
43	COc1ccc(C(CCNC(C)c2ccccc2)c2ccc(F)cc2)cc1 (stereo unspecified)
44	COc1cc(SC)ccc1C(=O)OCC(=O)NC1CCCCC1
45	CC(CCc1ccccc1)NS(=O)(=O)c1ccc(Cl)c(C(=O)O)c1 (stereo unspecified)
46	Oc1ccc(/C(Cc2ccc3ccccc3n2)=N\Nc2ccccc2)c(O)c1
47	CCN1CCC(=NNC(=O)CC23CC4CC(CC(C4)C2)C3)CC1
48	O=C(CSc1nc(O)c(Cc2ccccc2)c(=O)[nH]1)Nc1nc2c(s1)CCCC2

screen / no.,41,42,43,44,45,46,47,48
ugtP null kill,x,-15,-3,7,3,x,1,3
BJeLR lethal,15,10,-2,1,-14,3,4,-1
Sa RN4220 lethal,x,8.0,-9.1,9.3,7.5,x,3.2,10
PrP 5UTR inh,-69,-22,-6,-16,-17,-43,-18,-9
Mtb hypoxia inh,x,2,5,-3,6,x,-1,15
Mtb hypoxia inh growth,x,-3,-3,-10,6,x,7,0
Autofluor counter,3275,3579,2065,4553,3661,6045,4953,3357

49	O=C(CN1C2CCCC1CC(NC(=O)c1ccccc1)C2)Nc1nccs1 (stereo unspecified)
50	COc1ccc(/C=N/NC(=O)c2c(C)nc3ccc(Cl)cn23)cc1OC
51	CCCCOc1ccc(CNC(=O)NS(=O)(=O)c2ccc(OCC(C)C)cc2)cc1
52	CCN(CC(=O)NCc1cccs1)C(=O)c1ccc(S(=O)(=O)Nc2ccccc2)cc1
53	Cc1csc(=O)n1CCC(=O)OCc1nnc(-c2ccc(Cl)cc2)o1
54	CCOC(=O)C1CCN(S(=O)(=O)c2ccc(Cl)s2)CC1
55	Cc1cc2occ(CC(=O)Nc3nnc(C4CC4)s3)c2cc1C
56	CC(=O)NNC1=Nc2ccccc2N(C)C(C)C1 (stereo unspecified)

screen / no.,49,50,51,52,53,54,55,56
ugtP null kill,0,x,-21,2,4,3,6,9
BJeLR lethal,-11,5,2,-1,x,-3,x,-25
Sa RN4220 lethal,5.6,x,16,3.7,3.1,2.3,1.1,5.3
PrP 5UTR inh,-11,-18,-8,6,-30,-21,-30,6
Mtb hypoxia inh,11,x,4,12,3,2,x,2
Mtb hypoxia inh growth,6,x,6,5,-14,-10,x,7
Autofluor counter,4564,3984,10422,4932,u,5727,4981,1996

57	Cc1ccc(CNC(=O)CSCC(=O)O)cc1
58	Nc1nonc1-n1nnc(C(=O)NN=Cc2ccc3c(c2)OCO3)c1CSc1ccccc1
59	Cc1ccc2nc3c(cc(C(=O)NCC4CCCO4)c(=N)n3CC3CCCO3)c(=O)n2c1 (stereo unspecified)
60	CC(SCc1ccccc1)C(=O)N/N=C/c1cc2c(cc1Br)OCO2 (stereo unspecified)
61	O=C(NCCN1CCOCC1)c1ccc2c(c1)N(Cc1ccccc1)CCS2
62	Cc1ccccc1-c1nc(CS(=O)(=O)CC(=O)NCCc2ccccc2)c(C)o1
63	COc1cccc(C(=O)OCc2cc(=O)oc3c(C)c(C)ccc23)c1OC
64	Cc1nc(S(=O)(=O)N(C)Cc2ccccc2)c(C#N)c(C)c1Cl
65	CCOCCCNC(=O)CCN1C(=O)c2ccccc2Sc2ncccc21
66	CN(CCc1ccccc1)C(=O)c1ccc(NC(=O)Cc2ccc(NC(=O)C3CCN(C(=O)C4CCC4)CC3)cc2)cc1
67	O=C(/C=C/c1ccccc1)OCCN=C1NS(=O)(=O)c2ccccc21

screen / no.,57,58,59,60,61,62,63,64,65,66,67
ugtP null kill,4,7,0,x,-2,1,17,1,0,-5,68
BJeLR lethal,12,x,-11,-2,-4,5,-9,1,4,x,-3
Sa RN4220 lethal,1.2,2.1,2.0,x,-0.9,-1.6,4.2,0.7,2.4,5.1,-1.2
PrP 5UTR inh,-2,x,-18,-19,-20,-18,-20,-2,-13,-15,-11
Mtb hypoxia inh,x,-7,0,x,x,-4,4,x,4,-5,3
Mtb hypoxia inh growth,x,-6,-3,x,x,-18,4,x,-3,4,10
Autofluor counter,4214,x,3882,3258,4214,5390,5448,3712,3530,2993,3895

A draw from above in order of length of the SMILES, descending.
6	CN(Cc1ccc(-n2cccn2)cc1)C(=O)c1cnn2c1NC(c1ccco1)CC2C(F)(F)F (stereo unspecified)
24	Cc1nc(N2CCCCC2)sc1C(=O)c1ccc(SCCO)c([N+](=O)[O-])c1
17	Cn1c(O)c(C(=N)COc2cccc(Cl)c2)c(=O)n(C)c1=O
34	NC(=O)c1cccc2c3c([nH]c12)CCCC3

screen / no.,6,24,17,34
ugtP null kill,-5,4,-12,x
BJeLR lethal,-4,19,-1,0
Sa RN4220 lethal,-11,4.4,3.8,x
PrP 5UTR inh,0,-8,-16,-32
Mtb hypoxia inh,-6,-1,16,x
Mtb hypoxia inh growth,6,2,6,x
Autofluor counter,x,3288,10135,3130
